High-throughput results deposited in PubChem BioAssay by Vanderbilt University.
GIRK2 act = activators of human GIRK2 potassium channels; G protein-activated inward rectifier potassium channel 2 (Homo sapiens), P48051; HEK293-GIRK2 thallium flux, Thallos fluorescence; AID 1259325, 2017; calls only for hits at 25 µM; 0.05% of 63,000 active;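 active = among the strongest 0.2% of first-round signals and kept after retests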;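 also: first round at about 10 µM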
Target sequence (P48051 whole entry, looked up): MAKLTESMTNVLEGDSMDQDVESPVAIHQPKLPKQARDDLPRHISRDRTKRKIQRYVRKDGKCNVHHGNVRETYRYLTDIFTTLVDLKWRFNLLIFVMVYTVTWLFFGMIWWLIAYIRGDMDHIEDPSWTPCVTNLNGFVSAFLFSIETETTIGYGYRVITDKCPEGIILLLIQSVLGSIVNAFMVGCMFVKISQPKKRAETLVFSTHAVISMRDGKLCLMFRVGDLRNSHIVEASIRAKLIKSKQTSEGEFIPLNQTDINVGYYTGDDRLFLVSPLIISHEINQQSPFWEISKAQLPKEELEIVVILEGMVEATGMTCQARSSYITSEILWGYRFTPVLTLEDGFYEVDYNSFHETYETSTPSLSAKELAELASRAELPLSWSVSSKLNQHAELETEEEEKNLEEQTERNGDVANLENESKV
Calls only; i = inactive.

SMILES | GIRK2 act
CCCCCCCCCCCCCCCCOC[C@H](COP(=O)([O-])OCC[N+](C)(C)C)OC(=O)NC | i
CC(=O)Nc1cccc([N+](=O)[O-])c1 | i
CCOc1ccc(-c2ccc(=O)n(C(C)C(=O)Nc3ccc(F)cc3F)n2)cc1 (configuration not stated) | i
COc1ccccc1N1CCN(C(=O)c2nnn(-c3ccc(C)cc3)n2)CC1 | i
O=C(NCc1ccc2c(c1)OCO2)C(=O)NCc1ccc(C(O)c2cccs2)s1 (configuration not stated) | i
COc1ccc(F)cc1S(=O)(=O)NCCN1CCN(C(=O)c2cccs2)CC1 | i
O=C(CC1CCCC1)N1CCC(c2nnc(-c3ccco3)s2)CC1 | i
Cc1c(Cl)cccc1S(=O)(=O)Nc1cnoc1 | i
CCCNC(=O)COc1coc(CSc2nncn2C)cc1=O | i
O=C(C1CC1)N(CC1CCCO1)c1nc2c(F)cc(F)cc2s1 (configuration not stated) | i
COc1ccc(CNC(=O)Cn2nc3c(N4CCN(c5ccccc5C)CC4)nccn3c2=O)cc1 | i
Cc1cccc(NC(=O)c2nc(-c3cn(-c4ccc(F)cc4)nn3)no2)c1 | i
O=C(CN1CCN(Cc2cnnn2-c2ccccc2)CC1)NCc1ccccc1 | i
Cc1ccc(CNC(=O)Cn2c(=O)c(CNc3ccc(C)cc3)cc3cc4c(cc32)OCCO4)cc1 | i
O=C(c1cccnc1-c1nc2ccccc2s1)N1CCN(c2ccccc2)CC1 | i
CCOC(=O)N1CCN(CC(O)COc2c(C)cccc2C)CC1 (configuration not stated) | i
O=C(Nc1cnc(Oc2ccccc2)nc1)c1cccc(Cl)c1 | i
O=C(Cn1nc(-c2ccc(F)cc2)c2sc(N3CCOCC3)nc2c1=O)Nc1cccc(F)c1 | i
COCCn1c(-n2nc(C)cc2C)nc2c1c(=O)n(CC(N)=O)c(=O)n2C | i
COc1ccc(CCNC(=O)c2nnn(-c3ccc(Cl)cc3)n2)cc1OC | i
CC(C)c1nccn1CC1CCN(C(=O)c2ccc([N+](=O)[O-])o2)CC1 | i
CCOC(=O)c1cn[nH]c1S(=O)(=O)NCCCc1ccccc1 | i
C=C(C)Cn1c(N2CCCC(C)C2)nc2c1c(=O)[nH]c(=O)n2C (configuration not stated) | i
Cc1nc(Nc2ccc(NC(=O)C3CCC(=O)N3)cc2)cc(-n2cccn2)n1 (configuration not stated) | i
CC(C)(C)C(=O)NCC(O)c1ccc2c(c1)CCO2 (configuration not stated) | i
COc1ccccc1CCNC(=O)c1cc(=O)c(OCc2ccccc2)co1 | i
CC(C)NCC(O)COc1ccc(COCCOC(C)C)cc1 (configuration not stated) | i
CCC(C)NC(=O)CSc1nnc2n(CCC(=O)NC3CCCCC3)c(=O)c3ccccc3n12 (configuration not stated) | i
CCCOc1ccc(S(=O)(=O)NCC(O)c2ccsc2)cc1C (configuration not stated) | i
O=C(Cn1nc2c3cc(-c4ccc(F)cc4)nn3ccn2c1=O)NCc1ccccc1Cl | i
CN(c1ccsc1C(=O)N1CCCCC1)S(=O)(=O)c1ccc(C(C)(C)C)cc1 | i
COC(=O)Cn1c(Br)nc2c1c(=O)[nH]c(=O)n2C | i
COc1ccc(SCC2CCN(C(=O)c3cccs3)CC2)cc1 | i
COc1ccc(C(=O)COc2ccc3c(=O)c(-c4ccc5c(c4)OCCO5)coc3c2)cc1 | i
CCN1CC(c2nc3ccccc3n2Cc2cc(C)ccc2C)CC1=O (configuration not stated) | i
COc1ccc(CNC(=O)c2ccc3c(=O)n(-c4ccccc4)c(=O)[nH]c3c2)cc1 | i
C=CCN1C(=O)/C(=C\C=C2/SCCN2C)SC1=S | i
Cc1cc(C(O)CCNC(=O)c2ccc(Cl)s2)c(C)o1 (configuration not stated) | i
COc1ccc(NC(=O)Cn2ccn(-c3cc(C)cc(C)c3)c(=O)c2=O)c(OC)c1 | i
Cc1noc(C)c1C(=O)N1CCN(Cc2nnnn2-c2cccc(F)c2)CC1 | i
Cc1ccc(CNC(=O)CCCCCn2c(=S)[nH]c3ccc(Br)cc3c2=O)cc1 | i
COCc1nc2ccccc2n1Cc1cccc2ccccc12 | i
O=C(Cn1nc(N2CCSCC2)c2ccccc2c1=O)Nc1cccc(Br)c1 | i
CCCCCCCCCCCCCC(=O)NC(CO)C(O)c1ccc([N+](=O)[O-])cc1 (configuration not stated) | i
O=C(Cn1nnn(-c2ccc(NC(=O)c3cnccn3)cc2)c1=O)NCc1ccco1 | i
Cc1ccc(-n2ccnc(SCC(=O)NC3CCCCC3)c2=O)cc1C | i
O=[N+]([O-])c1cccc(NS(=O)(=O)c2ccc3ccccc3c2)c1 | i
CCOc1ccc(-c2csc(NC(=O)CN3C(=O)c4ccccc4C3=O)n2)cc1 | i

Next section (two carried over from the part before).
SMILES | GIRK2 act
O=[N+]([O-])c1cccc(NS(=O)(=O)c2ccc3ccccc3c2)c1 | i
CCOc1ccc(-c2csc(NC(=O)CN3C(=O)c4ccccc4C3=O)n2)cc1 | i
COc1cccc(-n2c(=O)c3sccc3n(Cc3nc(-c4ccccc4)no3)c2=O)c1 | i
CC1CN(CC(O)COC(C)(C)C)CC(C)O1 (configuration not stated) | i
CCOc1ccc2nc(N(CC3CCCO3)C(=O)C3CCCC3)sc2c1 (configuration not stated) | i
COc1ccccc1CNC(=O)C(=O)NCC1CCN(C2CCCC2)CC1 | i
COc1ccc(CNC(=O)Cn2c(=O)c(CNc3ccc(C)cc3)cc3ccc(OC)cc32)cc1 | i
CSc1ccccc1C(=O)NCCC(O)c1ccoc1 (configuration not stated) | i
Cc1nc2c(c(=O)n1CC(=O)NCc1ccc(Cl)cc1)CN(Cc1ccccc1)CC2 | i
N#Cc1nc(-c2ccc(COc3ccc(Cl)cc3)o2)oc1NCC1CCCO1 (configuration not stated) | i
CN(C)S(=O)(=O)NCCn1nc(-n2cncn2)ccc1=O | i
Cc1nn(C2CCS(=O)(=O)C2)c(C)c1N1CCN(C(=O)Nc2ccccc2C(F)(F)F)CC1 (configuration not stated) | i
Cn1cccc(C(=O)N2CCC3(CC2)OCCCO3)c1=O | i
Cn1c(CN2CCN(CC(=O)Nc3ccc(F)cc3F)CC2)nc2ccccc21 | i

Three consecutive entries out of the list so far:
SMILES | GIRK2 act
Cc1nn(C2CCS(=O)(=O)C2)c(C)c1N1CCN(C(=O)Nc2ccccc2C(F)(F)F)CC1 (configuration not stated) | i
Cn1cccc(C(=O)N2CCC3(CC2)OCCCO3)c1=O | i
Cn1c(CN2CCN(CC(=O)Nc3ccc(F)cc3F)CC2)nc2ccccc21 | i

The results go on:
SMILES | GIRK2 act
CC(=O)c1ccc(C(=O)Nc2sc3c(c2-c2nc4ccccc4s2)CCN(C(C)C)C3)cc1 | i
O=C(COc1ccccc1F)N1CCC(Cn2ccnc2)CC1 | i
CCOC(=O)N1CCC(NC(=O)C2CSCCC(=O)N2)CC1 (configuration not stated) | i
CCn1c(SCCC(=O)OC)nc2c1c(=O)[nH]c(=O)n2C | i
COc1ccc2oc(-c3ccccc3)c(C(=O)N3CCOCC3)c2c1 | i
O=C(Cn1c(=O)oc2ccccc21)Nc1nnc(Cc2ccc(F)cc2)o1 | i
O=c1oc2cc(O)ccc2cc1-c1ccc(Cl)cc1 | i
CC(C)(C)c1ccc(S(=O)(=O)Nc2ccc3c(c2)OCO3)cc1 | i
COc1ccc(NC(=O)c2c[nH]c3nc(C)ccc3c2=O)cc1 | i
COc1cc(OC)c(NC(=O)Cn2c(C)nc3c(c2=O)CCN(Cc2ccccc2)C3)cc1Cl | i
O=C(Cn1cccc(-c2nc(-c3ccc(Cl)cc3)no2)c1=O)Nc1ccc(F)cc1F | i
CCCCc1ccc(Nc2nc3c(c(=O)n(C)c(=O)n3C)n2CC(=O)O)cc1 | i
CS(=O)(=O)c1ccc(-c2nnc(SCc3ccccc3)o2)cc1 | i
COc1ccccc1-c1c(C(F)(F)F)oc2cc(OC(=O)N3CCOCC3)ccc2c1=O | i
CC12CCC3C1C(c1c(cc(O)c(C(=O)c4ccccc4)c1O)O2)C3(C)C (configuration not stated) | i
Cc1[nH]nc(S(=O)(=O)N2CCC(C(N)=O)CC2)c1C(=O)O | i
CCCCOc1ccc(NC(=O)NCc2cc(C)oc2C)cc1 | i
COc1ccccc1N1CCN(C(=O)c2nnn(-c3ccc(Br)cc3)n2)CC1 | i
CSc1ncc(Cl)c(C(=O)Nc2nc3ccccc3s2)n1 | i
O=C(CCCn1nnc2ccccc2c1=O)Nc1ccc2c(c1)OCO2 | i
COC1CCN(S(=O)(=O)c2cc(Cl)ccc2C)CC1 | i
COc1cc(NC(=O)Cc2ccccc2Cl)ncn1 | i
Cc1ccc(OCC(=O)Nc2ccc3c(c2)CCCN3S(=O)(=O)c2ccc(C)cc2)cc1 | i
CN(C)C(N)=S | i
COc1ncc(NS(=O)(=O)c2ccc3c(c2)OCCO3)cn1 | i
Cc1cccc(N2CCN(S(=O)(=O)CCCNC(=O)c3cccc(Cl)c3)CC2)c1 | i
COc1ccc(C2C3=C(Nc4nnnn42)c2ccccc2OC3c2cccs2)cc1 (configuration not stated) | i
COc1ccccc1-c1csc(-c2nnn(-c3ccc(F)cc3)c2N)n1 | i
C=CCc1c(C)nc(-c2ccccc2)[nH]c1=O | i
COC(=O)CN1CCN(c2nc3c(c(=O)[nH]c(=O)n3C)n2Cc2cccc3ccccc23)CC1 | i
Cc1noc(-c2ccc(N3CCCC(C(=O)N4CCSCC4)C3)nc2)n1 (configuration not stated) | i
Cn1cccc1CN(Cc1cccs1)C(=O)Nc1ccc(C(C)(C)C)cc1 | i
COc1cc(NC(=O)Nc2nnc(-c3cc(C)ccc3C)o2)cc(OC)c1OC | i
CC(C)(C)c1csc(CN2CCN(CC(=O)N3CCc4ccccc43)CC2)n1 | i
Cc1ccccc1NC(=O)CN1CCC2(CC1)N=C(c1ccccc1)C(=O)N2 | i
Cc1noc(CNC(=O)C2CCN(C(=O)COc3ccccc3C)CC2)n1 | i

Arranged by length of the SMILES (lowest first): some entries from above
SMILES | GIRK2 act
COc1ncc(NS(=O)(=O)c2ccc3c(c2)OCCO3)cn1 | i
COc1ccccc1-c1csc(-c2nnn(-c3ccc(F)cc3)c2N)n1 | i
Cc1noc(-c2ccc(N3CCCC(C(=O)N4CCSCC4)C3)nc2)n1 (configuration not stated) | i
COc1cc(NC(=O)Nc2nnc(-c3cc(C)ccc3C)o2)cc(OC)c1OC | i
Cc1cccc(N2CCN(S(=O)(=O)CCCNC(=O)c3cccc(Cl)c3)CC2)c1 | i

(further entries)
SMILES | GIRK2 act
CCCCn1c(C(=O)N2CCCc3ccccc32)cc2c(=O)n(C)c(=O)n(C)c21 | i
Cc1cc(NC(=O)C2CCN(C(=O)c3ccco3)CC2)no1 | i
COc1cc2nc[nH]c(=O)c2cc1OC | i
COc1nn(C)cc1C(=O)NCCOc1ccc(-c2ccc(F)cc2)nn1 | i
Cc1nc(CSc2nnc3scc(-c4ccc(Cl)cc4)n23)cs1 | i
CCCS(=O)(=O)N1CCCc2ccc(NC(=O)Nc3ccc(OC)c(OC)c3)cc21 | i
O=C(NCCc1ccccc1)C(=O)Nc1ccccc1[N+](=O)[O-] | i
O=C(N1CC(c2nc(-c3cnccn3)no2)C1)C1(c2cccs2)CCCC1 | i
COc1ccc(CCn2c(NCCCOC(C)C)nc3c2c(=O)[nH]c(=O)n3C)cc1 | i
COc1ccc(OC)c(NC(=O)CSc2nnc(Cc3ccccc3)n2N)c1 | i
Cc1cc(C)c(S(=O)(=O)N2CCN(C(=O)c3cccc(Br)c3)CC2)c(C)c1 | i
CC(C)CCNC(=O)c1nnn(-c2ccccc2F)c1-c1cccnc1 | i
O=C(Nc1ccccc1)Nc1nnc(-c2cccs2)o1 | i
Cc1nc2ccccn2c1C(=O)N1CCC(c2nnc(C3CC3)o2)CC1 | i
O=C(CN1C(=O)CCC1=O)N1CCC(CSCc2ccco2)CC1 | i
COc1cccc(NC(=O)C2COc3ccccc3C2)c1 (configuration not stated) | i
CC(C)c1ccc(NC(=O)Cn2nc3c(Oc4ccccc4)nccn3c2=O)cc1 | i
CC(C)c1cccc(NC(=O)Cn2cnc3c([nH]c4ccccc43)c2=O)c1 | i
Cc1nnsc1C(=O)N1CCCC(c2nnc(-c3ccccc3F)s2)C1 (configuration not stated) | i
CC(C)S(=O)(=O)c1ccc(CC(=O)N2CCC(CSc3nccn3C)CC2)cc1 | i
Cc1noc(CNC(=O)c2nnn(-c3ccc(OC(F)(F)F)cc3)n2)n1 | i
COc1ccc(CN2C(=O)c3cccc4cccc(c34)C2=O)cc1S(=O)(=O)N1CCOCC1 | i
COc1ccc(N2C(=O)N(CC(=O)NCCc3ccccc3)c3ccccc3S2(=O)=O)cc1OC | i
O=c1oc2cc(O)ccc2c(O)c1-c1ccc(Br)cc1 | i
CC1CCN(c2nn(CC(=O)Nc3ccc4c(c3)OCO4)c(=O)c3ccccc23)CC1 | i
O=C(NCC#CCOc1ccc2c(c1)OCO2)c1ccc[nH]c1=O | i
COc1cccc(CSc2nc3c(-c4ccccc4)c[nH]c3c(=O)[nH]2)c1 | i
COC(=O)c1ccc(NC(=O)C(=O)NCCN2CCN(c3ccc(F)cc3)CC2)cc1 | i
COc1ccc(-c2cc(=O)n(CCNC(=O)Cn3cnc4ccccc4c3=O)cn2)cc1 | i
Cc1ccc(OCC(=O)Nc2ccccc2C(=O)O)c(Br)c1 | i
COc1ccccc1CCNS(=O)(=O)c1cn(C)nc1C | i
CCCCN1CC(c2nc3ccccc3n2CC(=O)N(C)c2ccccc2)CC1=O (configuration not stated) | i
COc1ccc(OC)c(-c2cc(C(=O)NCCn3nc(-c4ccco4)ccc3=O)n(C)n2)c1 | i
Cc1ccccc1Cn1nc(C2CCCN(S(C)(=O)=O)C2)n(C)c1=O (configuration not stated) | i

Random excerpt: 5 compounds from above.
SMILES | GIRK2 act
COc1ccccc1CCNS(=O)(=O)c1cn(C)nc1C | i
O=C(NCC#CCOc1ccc2c(c1)OCO2)c1ccc[nH]c1=O | i
COC(=O)c1ccc(NC(=O)C(=O)NCCN2CCN(c3ccc(F)cc3)CC2)cc1 | i
Cc1ccccc1Cn1nc(C2CCCN(S(C)(=O)=O)C2)n(C)c1=O (configuration not stated) | i
COc1ccc(-c2cc(=O)n(CCNC(=O)Cn3cnc4ccccc4c3=O)cn2)cc1 | i

A portion of the library; rates above refer to the full screens.
